NPYLR7 agonist – activates Aedes aegypti NPYLR7 receptor; hit rate 0.15% among 270,000; HEK293T NPYLR7/Galpha15, GCaMP6s calcium fluorescence; activation, % at 10 µM; in the data active = activation above about 40%;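 note: 0% = vehicle and 100% = reference agonist at the receptor; some compounds past the cut are filed as inactive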
NPYLR7 agonist max-min – second read-out of NPYLR7 agonist, no call of its own (marks repeat the call); activation, %; measured here: Max-Min RFU normalised activation; some inactives read as strong as hits;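 span of the calcium signal over five minutes; 0% = vehicle and 100% = native peptide agonist; compound fluorescence can raise it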
Numbers without * were called inactive; & = joins results of further samples.

SMILES	NPYLR7 agonist	NPYLR7 agonist max-min
COc1cc(/C=C/c2ncc(C(=O)O)s2)cc(Cl)c1OC	5	7
O=C1CC(C(=O)N2C[C@@H]3[C@H](C2)[C@H]2CC[C@@H]3O2)c2cc(F)ccc2N1 (stereo partly drawn)	-1	7
Cc1cc(=O)[nH]c(NN=C(CC(C)C)CC(C)C)n1	1	1
CCOC(=O)Nc1nc(CC(=O)NCCn2nc(-c3ccco3)ccc2=O)cs1	1	-1
CCCCS(=O)(=O)N1CCC2(CC1)NC(=O)c1cc(C)ccc1N2	2	11
O=C(NNC(=O)c1cc(=O)c2ccccc2o1)c1ccc(=O)n(Cc2ccccc2)c1	-11	-18
CCNc1ncc(CN2CCCN(C(=O)c3ccco3)CC2)cn1	0	-1
Cc1cccc(COC(CN2CCN(C(=O)NCCc3ccccc3)CC2)c2ccc(Cl)cc2)c1 (stereo not drawn)	-8	-2
Cc1cc2cc(CNC(=O)C(C)C)ccc2n1C	1	-3
O=C(Nc1ccc(F)cc1)c1cccc(CSc2nc(Cl)cc(N3CCCCC3)n2)c1	9	9
COc1ccc(C(=O)N2CCCC(C(=O)Nc3ccc(-c4cccc(F)c4)cc3)C2)o1 (stereo not drawn)	5&8	3&8
OCCCN(CCO)c1nc(C2CC2)ns1	5	2
COc1ccc2[nH]c(CNC(=O)CCc3scnc3C)cc2c1	4	-3
CC(C)CC(C)NC(=O)CCC(=O)N1CCN(c2ccccn2)CC1 (stereo not drawn)	-5	-10
CC(=O)NC12CC3CC(C1)CC(C(=O)OC(C)C(=O)Nc1ccccc1C#N)(C3)C2 (stereo not drawn)	-7	-9
CC(C)(CO)NS(=O)(=O)c1ccc2c(c1)C(=O)c1cc(S(=O)(=O)NC(C)(C)CO)ccc1-2	-4	-5
Cc1nc(N2CCCCC2)sc1C(=S)NC(=O)c1ccc(C#N)cc1	15	13
Cc1nnc(NCC(O)c2ccccc2F)c(C#N)c1C (stereo not drawn)	0	0
Cc1ccc(-n2nc(-c3ccccc3Cl)cc2C(=O)O)cc1	13	20
CCOC(=O)C(=O)N(C)c1c(CC)nc2c(OCc3cc(Cl)cc(Cl)c3)cccn12	5	2
Cc1nc(N2CCN(c3ncccn3)CC2)c2c3c(sc2n1)CCCC3	-3	-6
Cc1ccc(NCN2C(=O)c3ccc([N+](=O)[O-])cc3C2=O)c([N+](=O)[O-])c1	0	-3
CC(C)c1nc(CS(=O)(=O)c2nc3cc(Cl)ccc3s2)no1	1	6
COc1ccc(C(=O)Nc2ccc([N+](=O)[O-])cc2C)cc1[N+](=O)[O-]	13	8
Cc1onc(-c2ccccc2Cl)c1C(=O)Nc1sc(C)c(C)c1C(=O)OC(C)C	-6	-8
The list continues:
SMILES	NPYLR7 agonist	NPYLR7 agonist max-min
COc1ccc([N+](=O)[O-])cc1N1C(=O)C2C3C=CC(C3)C2C1=O (stereo not drawn)	-2	-3
O=C(Nc1cnc2ccccc2c1)c1cc(S(=O)(=O)N2CCOCC2)ccc1Cl	8	5
Cc1ccc(C(CC(=O)O)c2c[nH]c3ccccc23)c(C)c1 (stereo not drawn)	-6	2
Cc1ccc(NC(=O)C(C)n2cccc2)cc1C (stereo not drawn)	0	3
Cc1nc(C)c(C(=O)Nc2ccc(SCc3ccc(F)cc3)nn2)s1	-4	-4
CCN(C)C(=O)C1=COC2=NC(=O)N(Cc3ccccc3C(F)(F)F)CCN12	-2	-1
CC1CCC2(CC1)Nc1ccccc1CO2 (stereo not drawn)	-2	-4
COc1ccc2cc(C(C)C(=O)N3CCC4(CC3)NC(=O)NC4=O)ccc2c1 (stereo not drawn)	-1	-2
Cc1nc2c(=S)[nH]nc(-c3ccccc3)c2s1	-8	-10
Cc1cc(CNC(=O)Nc2c(C)cccc2C(C)C)ccc1F	1	-1
O=c1[nH]cnc2c1nnn2-c1ccc(Br)cc1	-6	-6
Cc1cc(O)ccc1C(=O)O	2	2
O=C(NCc1cccnc1N1CCN(c2ccccn2)CC1)C1CCCC1	3	0
O=C(C[n+]1cc(-c2ccccc2)n2c1CCC2)c1ccc(Br)cc1	1	44
CCCCN=C1SCC(c2cc(C)n(Cc3ccco3)c2C)=NN1C	11	14
CCN(CC)c1ccc(CN(C(=O)c2ccccc2Cl)C2CC2)c(OS(C)(=O)=O)c1	38	36
O=C(CN1CCCC1c1ccccn1)N1CCOc2ccccc21 (stereo not drawn)	-1	-2
CCn1c(=O)c2c(n3c(SCC(N)=O)nnc13)-c1ccccc1CC21CCCCC1	3	-2
CC(C)(C(=O)N1CCN(S(=O)(=O)c2cccc(C#N)c2)CC1)c1ccccc1	3	1
CCOC(=O)c1ccc2c(c1)nc(SCc1cccc(I)c1)n2CCCOC(C)C	28	25
O=C(NCc1cccs1)c1cccs1	9	8
Cc1ccc(-c2ccnc(NCCc3nc(C(C)C)no3)n2)c(C)n1	1	4
c1ccc(OCc2noc(CN3CCc4ccccc4C3)n2)cc1	1	-3
Cc1cccn2c(=O)c(C=C3SC(=S)N(CC(C)C)C3=O)c(N3CCC(C)CC3)nc12	2	-4
Cc1nc2cc(=O)[nH]n2c(C)c1CNC(=O)CCc1cccc(F)c1	-1	1
Remaining list, next part:
SMILES	NPYLR7 agonist	NPYLR7 agonist max-min
CCOc1ccc(-c2ccnc(N(CC)CC)n2)cc1C(=O)O	6	4
CCCn1c(C)c(C)n2c3c(=O)n(CCOC)c(=O)n(C)c3nc12	-1	21
CCOC(=O)C(c1cc(C)cc(C)c1)C1C=CC(NC(=O)c2cccc(SC(F)F)c2)C1 (stereo not drawn)	2	-1
NC(=O)C1=COC2=NC(=O)N(Cc3ccccc3C(F)(F)F)CCN12	0	-1
c1nc(N2CCC3(CCCO3)CC2)c2ccsc2n1	8	6
Cc1ccc(-c2c(C)oc(C)c2C(=O)Nc2ccc(C(C)C)cc2)cc1	-4	-10
CN(CC1CC1)C(=O)/C=C/c1ccc(-c2ccccc2F)s1	-5	527
Brc1csc(-c2noc(C3CC4CCC3O4)n2)c1 (stereo not drawn)	1	0
NCC1Cc2cc(-c3ccc4sc(N)nc4c3)cc(Cl)c2O1 (stereo not drawn)	2	-2
Cc1noc(C)c1S(=O)(=O)Nc1cccc(S(=O)(=O)NC2=NCCC2)c1	3	9
CCCCN1CCC(NC(=O)N2CC3CC=CCC3C2)CC1 (stereo not drawn)	-6	-10
Cc1c(CN2CCN(CCC(C)C)C(CCO)C2)c(=O)n(-c2ccccc2)n1C (stereo not drawn)	10	5
COc1cccc2cc(C(=O)Nc3c(C)n(C)n(-c4ccccc4)c3=O)c(=O)oc12	1	-17
Cc1nc(N)nc2c1CCCC2	-1	-3
COc1ccccc1Oc1ccc(NC(=O)C2CCC(=O)NC2)cc1F (stereo not drawn)	12	12
Cc1ccc(C2(O)CCN(Cc3cccc(-n4cccn4)c3)CC2)nc1	-2	-6
Cc1nn(C)c(C)c1Cc1nc(N(C)C)no1	8	5
COc1ccc2cc(C3CN(c4ccc(C(=O)N(C)C)cn4)CCO3)ccc2c1 (stereo not drawn)	4	2
O=C(c1nccn2ccnc12)N1CCC(Oc2ccccc2)C1 (stereo not drawn)	0	-1
COc1ccc(Cl)cc1NC(=O)CN(C)C(=O)c1ccc2ccccc2n1	8	7
Cc1cccc(CSc2ncc(CO)n2CC(=O)NC2CCCC2)c1	8	4
c1ccc(C2CCc3ccccc3O2)cc1 (stereo not drawn)	8	4
COCC(C)NCCSc1ncn[nH]1 (stereo not drawn)	0	17
COc1ccc(S(=O)(=O)NCC2CCCN(C(=O)C3CCOCC3)C2)cc1 (stereo not drawn)	-1	-2
C=CCn1c(O)c(N=Nc2ccccc2[N+](=O)[O-])c2ccccc21	-1	-4
The listing continues.
SMILES	NPYLR7 agonist	NPYLR7 agonist max-min
COc1cc(C=C2N=C(c3ccc4c(c3)OCO4)OC2=O)cc2c1OCCO2	97*	77*
CN1CCCn2nc(C(=O)N3CCCC3c3nc(-c4ccccc4)no3)cc2C1 (stereo not drawn)	3	2
COc1cc(OC)c(Br)c(-n2c(C(C)N(C)C(=O)c3ccccc3Cl)nc3ccccc3c2=O)c1 (stereo not drawn)	0	1
CCN1CCN(C(C)CNc2ccc3ccc(F)cc3n2)CC1 (stereo not drawn)	6	4
O=c1ccc(-c2cccnc2)n[nH]1	-3	1
O=C(COc1cccc(Br)c1)Nc1nnc(-c2cccnc2)s1	1	-1
CC(=O)N1N=C(c2ccco2)CC1c1ccc(Cl)o1 (stereo not drawn)	-2	-5
Cc1ccc(-c2nn(CCc3ccccc3)c(=O)c3nc(C)sc23)cc1	7	3
CC(=O)Nc1ccc(SCCC(=O)Nc2cc(C)on2)cc1	1	0
Cc1[nH]c2ccccc2c1Cc1n[nH]c(=S)o1	-1	0
CC(c1ccc(F)cc1)N(C)C(=O)/C=C/c1ccc(NS(C)(=O)=O)cc1 (stereo not drawn)	-4	-6
O=C(N[C@@H]1CCCCC1NC(=O)C1CCCN(S(=O)(=O)c2ccc([N+](=O)[O-])cc2)C1)c1ccccc1 (stereo partly drawn)	18	21
CC(c1cccnc1)N1CCN(C2CCN(C)C2=O)CC1 (stereo not drawn)	0	-3
O=C(O)c1cccnc1SC1CC(=O)N(c2ccc([N+](=O)[O-])cc2)C1=O (stereo not drawn)	-5	0
O=C(NC(c1ccccc1)c1cnccn1)C1CCN(Cc2cccc(C(F)(F)F)c2)CC1 (stereo not drawn)	-1	5
CNc1nc(-c2c(C(=O)OC)c(C)n(C3CC3)c2C)cs1	4	2
O=S(=O)(Nc1cccnc1)c1ccc(I)cc1	1	4
CCc1cc(=O)[nH]c(-n2nc(C)cc2NC(=O)c2ccc(Br)o2)n1	8	0
COc1ccc(OC)c(S(=O)(=O)NCCn2nc(-c3ccccc3)ccc2=O)c1	-1	-1
O=C1c2ccccc2C(=O)c2cc(Sc3ccccc3)ccc21	0	-1
O=C(c1ccc(Br)cc1)N1CCN(S(=O)(=O)c2ccc(F)cc2F)CC1	-5	-6
CN(Cc1ccc(F)c2cccnc12)CC1CCN(CCO)CC1	3	3
CCC(NC(=O)Cc1ccccc1)C1c2cc(OC)c(OC)cc2CCN1Cc1ccccc1F (stereo not drawn)	5	5
CN(C)CCNC(=S)Nc1ccccc1C(C)(C)C	3	2
Cc1c(-c2ccccc2F)[nH]c2ccc(CNC(=O)C(C)n3ccnc3)cc12 (stereo not drawn)	-2	-2
Going on with the list:
SMILES	NPYLR7 agonist	NPYLR7 agonist max-min
Cc1nn(C)c(Cl)c1[C@@H]1C[C@H]2CN(CCc3ccccc3)C(=O)[C@]23CCCN13	11	9
Cc1ccc(C(=O)c2c(N)c(C#N)c3ccccn23)cc1	-1	-6
CC1=NOC(C(=O)Nc2cc(C)ccc2NC(=O)C2CCCCC2)C1 (stereo not drawn)	9	-3
CC(C)Oc1ccc(S(=O)(=O)N2CCCCC2)cc1NC(=O)c1ccc(C#N)cc1	7	6
CCCN(C(=O)C(C)S(C)(=O)=O)C(CC)c1ccccc1 (stereo not drawn)	7	0
Cn1c(=O)c2c(-c3ccccc3)n(CC(N)=O)cc2n(C)c1=O	-7	-15
CCOc1cc(C(=O)Nc2ccc(F)cc2)cc(Cl)c1O	5	4
Cn1c(CN(Cc2ccncc2)Cc2ccc(F)cc2)nc2ccccc21	-19	-20
COCCn1c(C(=O)Nc2ccccc2SC)cc2c(=O)n(C)c(=O)n(C)c21	0	0
O=C(Cn1c2ccccc2c(=O)c2ccccc21)Nc1cccnc1Cl	0	-7
O=C(CN1C(=O)CSC(c2ccccc2F)c2c(-c3ccccc3)nn(-c3ccccc3Cl)c21)NCC1CCCO1 (stereo not drawn)	17	4
COC(=O)c1ccc(Cn2cnc3c(nnn3-c3ccc(Br)cc3)c2=O)o1	-5	-8
c1ccc(-c2nc(-c3cnccn3)n[nH]2)nc1	2	1
O=C1NC(c2cnc(-c3cccs3)s2)Nc2ncccc21 (stereo not drawn)	-1	518
Cc1cccc(N=c2oc3cc(O)ccc3cc2C(N)=O)c1	9	5
CCOc1cc2c(cc1-c1nccn1CCc1cnc[nH]1)CCC2	12	8
C=CCC(Nc1ccccc1)c1ccco1 (stereo not drawn)	-2	-3
O=C1N(CC2CCC2)CCCC1(O)CN1CCCOCC1 (stereo not drawn)	18	5
COc1cccc(C2CC(=O)C3C(=Nc4nc(C(F)(F)F)nn4C3c3ccc(Cl)cc3)C2)c1 (stereo not drawn)	-4	-10
CCCCc1ccc(C(=O)N2CCC(C(=O)NC3CCCC[C@H]3NC(=O)c3ccccc3C)CC2)cc1 (stereo partly drawn)	22	13
CC1CN(c2ncnc3c2cnn3CCNC(=O)C(C)(C)C)CC(C)O1 (stereo not drawn)	-2	-1

Source: PubChem BioAssay

A portion of the library. The share of hits here may be higher or lower than overall.
